# Bfl-1 A1 inh: inhibitors of the anti-apoptotic protein A1, read as caspase activation | MEF A1-2A-BIM cells, Caspase-Glo 3/7 luminescence, 3 h; percent of clofoctol response, vehicle zero | caspase activation, % (concentration not given with the values) | 330,000 tested, 0.066% active;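 active = over half of replicate activation scores above 10%, or exactly half above 10 with the replicate mean above 10; inconclusive = replicate mean below 10 yet half the replicates above 10; inactive = over half of replicates below 10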;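 also: wells of about 30 µL received 50 nL stock; many hits fall short of the cut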
# RanGTP-Imp inh: inhibitors of RanGTP-importin-beta interaction, primary screen, biochemical, FRET, CFP-Ran, YFP-importin-beta, homogeneous. cell-free CFP-Ran/YFP-importin-beta FRET ratio. inhibition, % (no concentration beside the values). 300,000 tested, 1.1% active;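 active = most replicates above 15%; inconclusive = exactly half above 15%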;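 also: 0% = DMSO wells and 100% = Ran loaded with GDP instead of GTP; wells of about 40 µL received 100 nL stock; the first replicate is given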
# UCH37 inh: inhibitors of human deubiquitinating enzyme UCH37; AID 588478; purified proteasome/UCH37, Ub-AMC cleavage fluorescence; inhibition, % (concentration not given with the values); 330,000 tested, 0.33% active; Q9Y5K5;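 active = mean of two replicates above 20%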;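 also: 0% = compound-free wells with enzyme and 100% = wells lacking proteasome; stock transfer was 100 nL into about 20 µL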
# Target sequence (Q9Y5K5 whole entry, looked up): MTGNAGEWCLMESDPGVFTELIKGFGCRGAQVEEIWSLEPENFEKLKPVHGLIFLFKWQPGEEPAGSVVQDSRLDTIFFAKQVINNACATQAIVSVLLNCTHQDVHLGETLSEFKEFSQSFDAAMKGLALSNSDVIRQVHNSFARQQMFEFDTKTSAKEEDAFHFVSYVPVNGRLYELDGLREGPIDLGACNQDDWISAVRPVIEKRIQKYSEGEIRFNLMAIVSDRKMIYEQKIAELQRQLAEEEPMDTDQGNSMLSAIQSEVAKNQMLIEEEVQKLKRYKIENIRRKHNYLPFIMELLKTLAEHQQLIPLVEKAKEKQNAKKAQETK
#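 Reagent: Ub-AMC substrate; assay system: Proteasome-associated human UCH37 deubiquitinase; controls: no-proteasome and no-compound wells; read-out: % inhibition of Ub-AMC cleavage fluorescence; timing: 30 min preincubation with enzyme, 25 min cleavage at room temperature; signal: AMC fluorescence from Ub-AMC cleavage, excitation 355 nm, emission 460 nm; buffer or medium: Tris-HCl pH 7.4 plus ovalbumin, ATP-MgCl2, DTT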
# T cruzi repl: blocks replication of Trypanosoma cruzi | T. cruzi beta-gal in NIH3T3, luminescence, 90 h | inhibition, % (concentration not given with the values) | 300,000 tested, 1.4% active;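 active = mean inhibition across valid replicates above about 55%, limit read from the data; inconclusive = mean below that limit but half or more replicates reach it; inactive = mean below it, under half of replicates reach it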;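 also: signal also drops with host cell toxicity which is not excluded here; 0% = plate median of DMSO wells and 100% = zero luminescence signal; higher percent means less beta-gal luminescence so fewer parasites; stock transfer was 50 nL into about 50 µL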
# Beta apoptosis: blocks beta cell apoptosis; INS-1E cytokine-induced death, ATP luminescence, 48 h; percent of positive-control rescue, neutral wells zero; protection from apoptosis, % (test concentration not listed); 300,000 tested, 0.8% active; AID 435005;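 active = all replicates at 75% or more, or half of them and the mean; inconclusive = half reach 75% but not the mean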;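 also: 0% = cytokine-treated negative control wells and 100% = positive control rescue; higher means more ATP so stronger rescue from cytokine killing; wells of about 40 µL received 100 nL stock; the first replicate is given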
# LANA-H2A inh: blocks KSHV LANA binding to histone H2A/H2B; 320,000 tested, 0.6% active; AID 2629; Q9QR71; cell-free LANA-H2A/H2B peptide, fluorescence polarization; inhibition, % (no concentration beside the values); in the data active = inhibition mostly above about 10%, no sharp cut-off; inactive = mostly below about 6.7%;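 also: stock transfer was 7.5 nL into about 10 µL; 0% = median of vehicle wells and 100% = median of positive control wells; one replicate is shown; the record names a cut of 25% in any replicate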
# B2AR ag: agonists of human beta-2 adrenergic receptor inducing internalization; P07550; Am2.2-beta2AR cells, FAP receptor internalization, flow cytometry; reference of the scale not given here; response, % (no concentration beside the values); 340,000 tested, 0.43% active; AID 504454;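 active = response above a set limit, near 3 SD of response in nonfluorescent compounds, cut at about 42% in these data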;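 also: stock transfer was 100 nL into about 11 µL; a reference agonist was the positive control; negative values mostly stem from fluorescent compounds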
# Target sequence (P07550 whole entry, looked up): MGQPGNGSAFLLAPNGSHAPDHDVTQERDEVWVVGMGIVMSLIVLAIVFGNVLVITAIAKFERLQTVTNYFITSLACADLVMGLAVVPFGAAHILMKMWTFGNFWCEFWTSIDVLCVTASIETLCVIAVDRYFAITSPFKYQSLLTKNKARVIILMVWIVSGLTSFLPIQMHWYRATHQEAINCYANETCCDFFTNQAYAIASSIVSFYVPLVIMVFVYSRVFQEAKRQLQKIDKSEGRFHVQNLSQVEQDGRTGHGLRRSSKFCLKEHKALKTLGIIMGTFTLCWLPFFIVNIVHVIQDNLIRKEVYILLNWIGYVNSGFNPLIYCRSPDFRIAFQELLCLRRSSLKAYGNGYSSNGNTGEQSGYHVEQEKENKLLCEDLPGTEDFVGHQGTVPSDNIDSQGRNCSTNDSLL
# Calb FLC: affects C. albicans growth with fluconazole; C. albicans CaCi-2 (fluconazole-resistant clinical isolate) + fluconazole, Alamar Blue growth, 48 h; growth inhibition, % (test concentration not listed); 300,000 tested, 0.57% active; AID 1979;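 active = most replicates above 75%; inconclusive = exactly half above 75%; inactive = most below 75%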;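 also: all wells also contain fluconazole at 8 µg/ml as a sub-toxic cotreatment; 0% = median of DMSO wells and 100% = median of geldanamycin control wells; wells of about 8 µL received 7.5 nL stock; the first replicate is given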
# * hit, by the source's call; i = inactive; ? = inconclusive; · = not tested or not shown.
SMILES,Bfl-1 A1 inh,RanGTP-Imp inh,UCH37 inh,T cruzi repl,Beta apoptosis,LANA-H2A inh,B2AR ag,Calb FLC
CC(=O)/C(=N\Nc1ccccc1)Sc1cccc2cccnc12,1.0,1.5,·,-1.1,-2.5,2.4,-7.6,-3.9
Cc1noc(C(F)(F)F)c1C(=O)NNC(=O)c1ccccc1,-0.2,-2.7,2.5,-6.5,25.6,0.3,-6.6,10.8
O=S(=O)(c1ccc(Cl)cc1)n1nnc2ccccc21,-0.9,-2.0,2.5,3.3,2.0,0.0,1.7,-1.2
CCOC(=O)CC(NC(=O)CCc1c(C)nc2ncnn2c1C)c1ccc(C)cc1 (stereo unspecified),0.0,?,0.9,-5.0,4.6,4.7,-16.8,9.1
O=C(CN1CCCC1)NC12CC3CC(CC(C3)C1)C2,-0.6,0.6,4.2,-6.6,-6.5,0.6,3.1,3.1
CCc1ccccc1NC(=S)N(CCN1CCCCCC1)Cc1ccco1,0.9,-1.4,0.7,-4.3,-5.0,-0.6,1.5,-1.4
CC(=O)N1c2ccc(S(=O)(=O)NCCC(=O)Nc3ccc(F)cc3C)cc2CC1C (stereo unspecified),0.5,0.3,2.7,-11.0,·,2.1,-6.9,-6.7
O=C1NCCCc2c1oc1ccc(O)cc21,-1.3,2.1,3.3,-6.0,10.4,5.8,-6.6,-7.1
O=c1c(-c2nc3ccccc3s2)cccn1Cc1ccc(Cl)c(Cl)c1,-0.4,13.0,i,-10.6,-1.6,-0.9,-14.1,-7.4
Cc1ccc(CC(C(=O)O)C(C)C(=O)Nc2ccc(F)cc2)cc1 (stereo unspecified),1.3,-2.2,0.2,-12.0,5.8,-1.6,-4.3,-8.4

# Brought forward from above: 2 entries, followed by the next part.
SMILES,Bfl-1 A1 inh,RanGTP-Imp inh,UCH37 inh,T cruzi repl,Beta apoptosis,LANA-H2A inh,B2AR ag,Calb FLC
O=c1c(-c2nc3ccccc3s2)cccn1Cc1ccc(Cl)c(Cl)c1,-0.4,13.0,i,-10.6,-1.6,-0.9,-14.1,-7.4
Cc1ccc(CC(C(=O)O)C(C)C(=O)Nc2ccc(F)cc2)cc1 (stereo unspecified),1.3,-2.2,0.2,-12.0,5.8,-1.6,-4.3,-8.4
CN1CCCN(C(=O)c2ccc(Cl)s2)CC1,0.1,2.0,3.3,0.7,0.5,-3.7,-4.9,-0.2
COc1ccc2c(c1OC)C(=O)N(c1ccccc1)C2=O,-0.2,-3.7,3.5,-10.5,3.6,-6.3,7.9,22.6
COc1cc(CNCc2cc(OC)ccc2OC)cc(OC)c1,0.1,1.0,5.6,13.1,·,-4.0,17.4,-1.8
CC(C)CCn1cnc2c(oc3nc4c(cc32)CCCC4)c1=O,-4.8,0.7,3.8,23.9,6.2,3.7,-10.0,44.5
Oc1ccccc1/C=C/c1noc(-c2ccccc2O)n1,-7.1,?,1.0,5.7,-6.0,-9.9,1.4,34.1
CN(Cc1ccc(Cl)s1)C(=O)CSc1nnc(C2CC2)n1C1CC1,-0.2,·,0.8,·,4.6,0.6,-8.6,·
O=C(NCCN1CCOCC1)c1cc2ccccc2oc1=O,0.5,1.4,-15.8,-4.4,-0.6,4.1,-8.0,12.8
CCC(=O)NCCC(c1ccco1)c1ccccc1OC (stereo unspecified),-0.6,-1.1,-1.3,-2.3,-3.8,2.2,16.7,-1.1
Cc1cc(C(=O)OCC(=O)Nc2cccc(S(N)(=O)=O)c2)c2ccccc2n1,0.9,1.1,-1.5,5.4,-3.7,3.3,-6.8,-5.5
Cn1c2c(c3cc([N+](=O)[O-])ccc31)CCCC2,0.9,-4.1,4.8,-10.5,0.0,1.0,8.2,-23.1
O=S(=O)(NCc1ccc(Cl)cc1Cl)c1ccc(N2CCOCC2)nc1,0.7,2.8,2.6,2.4,·,-0.6,-10.3,1.6
NC(=O)c1c(NC(=O)Cn2nc(C(=O)O)c3ccccc3c2=O)sc2c1CCCC2,0.4,3.1,7.9,-15.0,3.2,-5.2,-1.6,3.0
O=C(Nc1ccc(Cl)cn1)c1cccc2ccccc12,-0.1,?,0.7,-1.2,37.4,0.2,-3.3,-17.9
Cn1c(=O)c2c(nc(NCc3ccco3)n2CC(O)COc2ccccc2)n(C)c1=O (stereo unspecified),-1.3,5.3,-0.8,-5.3,1.6,-2.0,6.2,3.0
Cc1cc(C=C(C#N)C#N)c(C)n1-c1ccccc1,-0.3,1.2,-0.6,-0.7,-6.0,2.0,-6.4,10.5
Cc1c(Cl)c([N+](=O)[O-])nn1CC(=O)N1CCN(Cc2ccccc2)CC1,0.3,0.1,1.3,9.0,-4.5,12.3,-2.1,-1.2
FC(F)(F)c1nnc(-c2ccccc2)nc1Oc1ccc(Cl)cc1Cl,-0.3,2.1,0.8,-12.8,0.6,3.9,-1.3,14.3
COc1cccc(-c2cccc(NC(=O)C3CCN(Cc4cccc(C)n4)CC3)c2)c1,-0.4,-1.4,4.7,-10.1,-4.3,0.9,5.2,-4.5
CC(=O)c1cccc(N(C(=O)c2csnn2)C(C(=O)NC2CCCC2)c2ccccc2)c1 (stereo unspecified),2.3,4.1,-1.4,-10.3,-2.8,1.4,2.3,7.2
O=C(NCc1ccccn1)c1nc(Cn2ccc([N+](=O)[O-])n2)no1,0.7,-1.7,0.3,7.9,1.3,-1.4,-17.3,-3.3
CN1CCN(C(=O)c2cc3c(=O)n4ccccc4nc3s2)CC1,0.2,19.7*,i,1.1,-6.6,0.5,4.6,4.3
CN1CCN(C(=O)CN(C2CCCCC2)S(=O)(=O)c2ccccc2)CC1,·,0.5,2.1,-6.2,·,·,2.9,8.1
Cc1ccc(S(=O)(=O)N2CCCC2)cc1C(=O)NCc1ccccc1CN1CCCC1,3.3,·,2.9,·,0.1,9.9,-8.0,·
Cc1ccc(-n2c(CCC(=O)O)ccc2-c2cccs2)cc1,-1.3,-0.1,0.7,-11.0,3.9,-1.1,12.2,?
COCCn1nnnc1C(c1cc2cc(C)cc(C)c2[nH]c1=O)N1CCN(c2ccccc2F)CC1 (stereo unspecified),-1.2,-3.5,-14.0,1.8,-6.0,1.3,-4.2,8.6
Nn1c(-c2ccccc2)cc(-c2ccccc2)cc1=O,0.5,-4.7,1.4,0.2,-4.7,-5.6,-12.4,-6.9
CC(=O)NNc1cc(N2CCOCC2)nc(N2CCOCC2)n1,0.8,83.0*,4.9,3.5,-2.1,-2.6,2.8,2.9
CCOC(=O)c1cc(-c2ccc(C)o2)n[nH]1,0.4,3.5,2.6,2.4,-2.3,0.2,17.6,-5.1
COc1ccc(CCNS(=O)(=O)c2ccc3[nH]c(=O)[nH]c3c2)cc1,0.8,·,-1.8,·,2.0,0.7,7.1,·
COc1ccc(C(=O)NCC(=O)OCCOc2ccc(Cl)cc2)cc1OC,-1.2,·,0.8,·,-9.2,4.8,0.6,·
CCCCCn1c(CN2CCCCC2CC)nc2c1c(=O)n(C)c(=O)n2C (stereo unspecified),0.1,0.0,4.7,20.4,-7.2,1.4,2.7,0.1
CCn1c(SCC(=O)Nc2ccc(N(C)C)cc2)nnc1-c1ccco1,0.2,-0.4,3.7,-4.1,-1.5,3.7,-18.1,-3.4
CCOCCCNC(=O)CNC(=S)N(Cc1ccc(C)cc1)Cc1ccco1,-0.6,-0.5,-2.1,7.6,-12.6,3.7,2.6,-20.8
OC(COc1cccc(OCC(O)CN2CCCC2)c1)CN1CCCC1 (stereo unspecified),0.2,-5.0,3.0,-3.8,3.8,-2.4,4.4,-8.2
Cc1cccc(C(=O)Nc2cccc3cccnc23)c1,-0.8,4.2,4.7,-21.2,·,3.2,-0.5,7.7
CCCCn1nc(C(=O)N2CCN(S(=O)(=O)c3ccccc3)CC2)c2ccccc2c1=O,-0.8,2.1,3.5,13.6,-1.4,0.2,7.5,-8.3
CCS(=O)(=O)N1CCN(c2ccc(S(=O)(=O)N3CCOCC3)cc2)CC1,-0.3,1.9,2.4,-7.5,-2.2,2.0,2.8,6.2
COC(=O)c1ccc(CO/N=C/c2cccc([N+](=O)[O-])c2)cc1,-0.6,1.1,·,-15.3,-3.7,2.5,-1.9,1.6
O=C(COc1ccccc1)Nc1c(C(=O)N2CCC(N3CCCCC3)CC2)oc2ccccc12,0.1,-0.2,5.4,23.6,-5.9,-4.3,-2.7,-0.1
CC(C)c1ccc(OCC(=O)NCc2ccccc2)cc1,0.1,-1.5,1.2,5.5,-3.0,2.4,-4.9,-6.2
C#Cc1cccc(-n2nnc(C(C)=O)c2C)c1,0.4,3.2,1.5,-7.1,2.0,-3.4,0.4,8.0
COc1cccc(OC)c1OCCOc1ccccc1OC(C)C,0.2,6.2,5.9,8.0,-11.7,7.3,3.1,-13.4
Cc1ccc(CNC(=O)COC(=O)c2ccc(S(=O)(=O)N3CCOCC3)cc2)cc1,1.6,·,2.5,·,1.8,4.5,-1.8,·
COc1ccc(N2CCN(C(=O)c3cc(=O)c4cc(Cl)ccc4o3)CC2)cc1,0.0,?,3.6,7.6,-5.3,6.0,-5.8,7.6
Cc1cccc(Oc2ccccc2NS(=O)(=O)c2ccc(CCC(=O)O)cc2)c1,1.1,·,4.1,·,1.0,-9.3,4.3,·
CCc1c(C#N)c(SCCC(=O)Nc2ccc(C)cc2)nc2c1C(=O)CC(C)(C)C2,0.1,-0.1,0.1,51.4,-3.7,1.0,-4.4,13.7
Cc1c(Cl)cccc1NC(=O)CSc1ncnc2c1cnn2CCO,-0.1,·,1.5,·,1.7,2.1,5.1,16.4
COc1ccc(C(CC(=O)N2CCCCC2)NC(=O)C(F)(F)F)cc1 (stereo unspecified),0.9,0.7,3.4,-3.6,-6.0,-3.2,-3.4,-5.8
COc1ccc(N(C(=O)c2cccc([N+](=O)[O-])c2)S(=O)(=O)c2cccs2)cc1,1.5,3.7,3.4,-3.7,0.2,2.3,-1.0,30.3
CCc1cc(C(=O)OC)c(NC(=O)CN2CCN(C(=O)C3CCCO3)CC2)s1 (stereo unspecified),1.1,?,3.4,11.5,-10.6,5.4,-2.9,2.7

# Continued:
SMILES,Bfl-1 A1 inh,RanGTP-Imp inh,UCH37 inh,T cruzi repl,Beta apoptosis,LANA-H2A inh,B2AR ag,Calb FLC
COc1ccc(OC)c(C(=O)c2coc3ccc(O)c(CN4CCOCC4)c23)c1,0.2,1.1,5.5,-1.0,1.3,-2.6,-0.6,6.9
Cc1cccc(Cn2ccc(N)n2)c1,-0.2,3.1,1.2,-2.4,0.8,3.3,6.8,-5.3
O=C1NC[C@@H](c2ccccc2)OC(=O)[C@H](Cc2ccc(F)cc2)C/C=C\C[C@H]1CC(=O)N(CCO)Cc1ccccc1,-1.0,·,-2.2,·,3.3,0.3,6.4,·
CCn1ccnc1CNC(=O)c1ccc(OC2CCN(C(=O)COC)CC2)cc1,·,2.4,-0.5,12.0,·,·,1.6,2.8
O=S(=O)(NCc1ccccc1)c1ccc2c(c1)OCCO2,-0.1,6.1,4.6,-14.5,-4.8,1.4,9.5,-27.4
N#Cc1c(-c2ccccc2F)cc(-c2cccnc2)nc1N,0.4,4.0,i,-6.4,4.1,-0.1,0.7,-1.0
CC(C)C(=O)N1CCC2(CC1)Oc1ccc(F)cc1C(=O)C21CC(c2ccccc2)=NO1 (stereo unspecified),-0.1,1.1,2.4,42.9,8.3,1.8,1.9,31.7
